From PubChem
LANA-H2A inh – blocks KSHV LANA binding to histone H2A/H2B; cell-free LANA-H2A/H2B peptide, fluorescence polarization; Q9QR71; inhibition, % (concentration not given with the values); AID 2629; 320,000 tested, 0.6% active; in the data active = inhibition mostly above about 10%, no sharp cut-off; inactive = mostly below about 6.7%;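 note: stock transfer was 7.5 nL into about 10 µL; 0% = median of vehicle wells and 100% = median of positive control wells; one replicate is shown; the record names a cut of 25% in any replicate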
Bfl-1 A1 inh – inhibitors of the anti-apoptotic protein A1, read as caspase activation | MEF A1-2A-BIM cells, Caspase-Glo 3/7 luminescence, 3 h; percent of clofoctol response, vehicle zero | caspase activation, % (no concentration beside the values) | 330,000 tested, 0.066% active | AID 2462;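 active = over half of replicate activation scores above 10%, or exactly half above 10 with the replicate mean above 10; inconclusive = replicate mean below 10 yet half the replicates above 10; inactive = over half of replicates below 10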;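 note: wells of about 30 µL received 50 nL stock; many hits fall short of the cut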
RanGTP-Impb inh – disruptors of Ran-importin-beta complex formation – biochemical, FRET, CFP-Ran, YFP-importin-beta, homogeneous, primary screen; cell-free CFP-Ran/YFP-importin-beta FRET ratio; inhibition, % (test concentration not listed); 300,000 tested, 1.1% active;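 active = most replicates above 15%; inconclusive = exactly half above 15%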;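 note: 0% = DMSO wells and 100% = Ran loaded with GDP instead of GTP; wells of about 40 µL received 100 nL stock; the first replicate is given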
Calb FLC – C. albicans growth modulation with fluconazole; growth inhibition, % (no concentration beside the values); C. albicans CaCi-2 (fluconazole-resistant clinical isolate) + fluconazole, Alamar Blue growth, 48 h; 300,000 tested, 0.57% active; AID 1979;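 active = most replicates above 75%; inconclusive = exactly half above 75%; inactive = most below 75%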;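 note: all wells also contain fluconazole at 8 µg/ml as a sub-toxic cotreatment; 0% = median of DMSO wells and 100% = median of geldanamycin control wells; wells of about 8 µL received 7.5 nL stock; the first replicate is given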
T cruzi inh – blocks replication of Trypanosoma cruzi. T. cruzi beta-gal in NIH3T3, luminescence, 90 h. 300,000 tested, 1.4% active. inhibition, % (concentration not given with the values);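 active = mean inhibition across valid replicates above about 55%, limit read from the data; inconclusive = mean below that limit but half or more replicates reach it; inactive = mean below it, under half of replicates reach it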;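 note: signal also drops with host cell toxicity which is not excluded here; 0% = plate median of DMSO wells and 100% = zero luminescence signal; higher percent means less beta-gal luminescence so fewer parasites; stock transfer was 50 nL into about 50 µL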
AF4-AF9 inh – MLL-AF4/AF9 protein interaction inhibition; P42568; AlphaScreen, biotin-AF4 peptide binding to FLAG-AF9; inhibition, % at 10 µM; 350,000 tested, 0.47% active;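 active = every replicate reaching a set inhibition limit, whatever the replicate mean, cut at about 25% in these data; inconclusive = mean inhibition reaches that limit but some replicates miss it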;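 note: 0% = plate neutral control median and 100% = total signal loss; the record names both 10 and 1 µM as test concentration; the first replicate is given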
Target sequence (P42568 whole entry, looked up): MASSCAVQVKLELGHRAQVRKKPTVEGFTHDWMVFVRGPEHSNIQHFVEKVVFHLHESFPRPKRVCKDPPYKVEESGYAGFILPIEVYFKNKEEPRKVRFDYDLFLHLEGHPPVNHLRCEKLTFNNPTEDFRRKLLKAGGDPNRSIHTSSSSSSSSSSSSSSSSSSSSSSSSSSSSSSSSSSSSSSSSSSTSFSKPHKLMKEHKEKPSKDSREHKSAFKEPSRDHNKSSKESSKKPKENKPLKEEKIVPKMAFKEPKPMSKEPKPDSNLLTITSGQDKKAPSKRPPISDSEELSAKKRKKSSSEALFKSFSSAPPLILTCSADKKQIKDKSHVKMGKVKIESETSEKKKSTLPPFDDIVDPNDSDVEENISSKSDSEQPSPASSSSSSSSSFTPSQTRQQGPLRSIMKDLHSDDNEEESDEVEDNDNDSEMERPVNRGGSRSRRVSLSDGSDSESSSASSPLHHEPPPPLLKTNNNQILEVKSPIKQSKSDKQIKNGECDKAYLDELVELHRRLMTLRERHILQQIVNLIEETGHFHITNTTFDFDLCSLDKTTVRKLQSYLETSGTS
Vif TR-FRET – inhibitors of Vif binding to APOBEC3G peptide, primary screen, biochemical, TR-FRET, GST-Vif 1-94, biotin-A3G peptide, dose response retest (AID 1117319). TR-FRET GST-Vif / biotin-A3G peptide binding; higher % means a stronger effect; test concentration not given here; strong numbers were not always called active. inhibition, %, or IC50 in µM where a hit was titrated. 260,000 tested, 0.57% active;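 active = above the screen mean plus three standard deviations and confirmed in dose response; inconclusive = results disagree or hit not tested in dose response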;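 note: Vif residues 1-94 fused to GST binding biotinylated APOBEC3G peptide 110-148; 0% = full assay without inhibitor and 100% = GST in place of GST-Vif; retest series ran down from 100 µM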
Beta cell apopt – beta cell apoptosis inhibition; 300,000 tested, 0.8% active; protection from apoptosis, % (no concentration beside the values); INS-1E cytokine-induced death, ATP luminescence, 48 h; percent of positive-control rescue, neutral wells zero;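 active = all replicates at 75% or more, or half of them and the mean; inconclusive = half reach 75% but not the mean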;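 note: 0% = cytokine-treated negative control wells and 100% = positive control rescue; higher means more ATP so stronger rescue from cytokine killing; wells of about 40 µL received 100 nL stock; the first replicate is given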
Numbers without * were called inactive; ? = inconclusive; . = not tested or not shown; & = joins results of further samples.

SMILES	LANA-H2A inh	Bfl-1 A1 inh	RanGTP-Impb inh	Calb FLC	T cruzi inh	AF4-AF9 inh	Vif TR-FRET	Beta cell apopt
O=c1[nH]c2ccccc2nc1/C=C/c1ccc(F)cc1	1.6	-5.1	37.6*	-16.9	6.0	-2.1	7.1%	7.7
COc1ccc(CNC(=S)NCc2ccc(F)cc2)cc1OC	3.6	0.3	5.7	6.0	7.2	-0.1	.	-2.1
COc1cc(SC)ccc1C(=O)Nc1ccncc1	5.9	-0.6	0.6	-6.4	1.9	-2.7	-3.4%	-2.3
Cc1ccccc1OCC(=O)Nc1ccc([N+](=O)[O-])cc1	2.9	-0.4	-11.5	-6.4	-4.0	3.9	.	-3.9
CCOCCCNC(=O)c1cn(CC)c2ccc(S(=O)(=O)N(C)C3CCCCC3)cc2c1=O	-2.0	-1.2	-1.8	-0.1	17.6	-0.8	.	5.8
Cc1ccc(C)c(OCc2ccc(C(=O)NN)o2)c1	-3.0	0.2	?	-20.4	-19.7	0.0	9.7%	1.0
CCn1c(C)nc2cc(C(=O)N/N=C/c3ccccc3C)ccc21	0.2	-3.8	1.3	23.9	-4.0	0.0	-6.0%	3.1
CC(C(=O)N1c2ccccc2Sc2ccccc21)n1nnc(-c2cccs2)n1 (stereo not given)	-3.1	0.4	1.9	4.0	15.6	.	0.6%	-4.7
COc1ccc(NC(=O)C2=C(C)C(=O)OC23CCC(C)CC3)cc1Cl (stereo not given)	-0.7	2.4	-2.4	-1.1	45.2	.	17.7%	.
CCCC(=O)Nc1cccc(-c2cn3cccnc3n2)c1	-9.5	0.0	1.6	-1.1	2.7	-2.4	0.5%	-3.6
O=C(NC1CCCCCC1)c1c(O)nc2sccn2c1=O	.	-0.1	-0.2	-2.9	2.1	4.4	-2.6%	-3.8
CCOc1cc(-c2cc(-c3ccc(C)o3)nc(N)c2C#N)ccc1O	-0.6	0.5	-1.6	15.8	35.6	.	?	4.2
CC(NC(=O)[C@H](C)N1C(=O)N2CCc3c([nH]c4ccccc34)[C@@]2(C)C1=O)c1ccccc1 (stereo not given in full)	-4.5	-0.7	-0.4	4.6	-7.9	5.9	.	3.6
Fc1cc(F)c2nc(Nc3nc4cc5c(cc4s3)OCO5)sc2c1	0.7	-0.3	-0.1	1.9	10.0	8.5	16.6%	2.3
COC(=O)COc1ccc(S(=O)(=O)N2CCc3ccccc3C2)cc1C	1.3	-0.2	2.6	5.6	6.0	.	-1.5%	-7.9
CNC(=S)Nc1cccc2[nH]ncc12	-2.0	0.8	3.2	22.1	-5.7	.	-1.5%	.
N#CC1(NC(=O)Cn2ncc(Cl)c(Cl)c2=O)CCCCC1	-1.3	1.4	-0.7	.	62.7*	-0.2	-7.5%	-13.1
CCOc1ccc(C(=O)Nc2cc(OC)ccc2OC)cc1	5.3	0.2	6.5	?	11.5	.	2.5%	-2.4
CCCN1C(=O)/C(=C/c2ccncc2)SC1=S	2.1	0.7	-1.0	-0.8	-11.2	-1.7	-6.3%	-3.1
COc1ccc(N2CC(C(=O)NC3CC(C)(C)NC(C)(C)C3)CC2=O)cc1 (stereo not given)	-2.6	0.5	8.4	4.3	1.9	-6.2	2.7%	-7.6
Nc1ccc(-c2cc3ccccc3c(=O)o2)cc1	-8.7	-9.5	.	.	.	1.6	.	-3.7
Cc1oc2c(C)c(O)ccc2c(=O)c1-c1nncn1-c1ccccc1	2.9	-0.7	-0.7	12.7	.	-0.1	.	-6.7
COC(=O)c1sc(Nc2ccccc2)nc1C	2.6	-1.8	-0.2	9.6	-5.3	-4.2	3.9%	1.8
O=C(CCCCCBr)N1CCC(CC2CC(c3cccc(Br)c3)=NO2)(C(=O)NCC2CCCCC2)CC1 (stereo not given)	0.5	1.1	5.9	4.2	27.5	0.1	.	5.6
C[C@H](CO)N1C[C@H](C)[C@@H](CN(C)S(=O)(=O)c2ccccc2)Oc2ccc(NC(=O)Cc3ccccc3)cc2C1=O	1.4	0.3	.	.	.	-3.1&-0.5	.	2.9
Additional compounds.
SMILES	LANA-H2A inh	Bfl-1 A1 inh	RanGTP-Impb inh	Calb FLC	T cruzi inh	AF4-AF9 inh	Vif TR-FRET	Beta cell apopt
O=C(Nc1ccccc1[N+](=O)[O-])c1ccc(S(=O)(=O)N2CCCC2)cc1	3.6	-1.3	1.2	-1.5	-5.6	1.1	0.7%	.
CCOc1ccccc1N1CC(C(=O)NCCc2ccc(S(N)(=O)=O)cc2)CC1=O (stereo not given)	-0.3	1.1	2.1	32.4	-0.6	.	2.3%	-0.5
Cc1ccc(NC(=O)c2cn(CCC#N)nc2-c2cccs2)c([N+](=O)[O-])c1	1.9	0.6	-2.2	-5.7	-1.2	8.9	?	-0.2
Cc1nc2oc3ccc(Cl)cc3c(=O)c2cc1C(=O)O	5.3	-10.6	-6.2	-1.7	-6.7	-1.0	1.9%	9.0
CC(=O)Nc1ccc(NC(=O)COC(=O)c2cc(S(=O)(=O)N(C)C)ccc2N2CCCC2)cc1	-0.5	-0.5	3.6	2.9	-1.0	1.6	0.7%	-3.7
Cc1sc2nc(SCC(=O)N3CCN(CCO)CC3)n(-c3ccccc3)c(=O)c2c1C	-6.1	0.1	-1.6	17.1	11.2	-42.4	4.4%&0.0%	1.1
COc1cc(C(=O)N(CCc2ccccc2)C2=CC3CCC(C2)N3C)cc(OC)c1OC (stereo not given)	-2.1	0.3	-1.7	-18.5	2.6	.	8.4%	0.1
Nc1ccc(N2CCCCC2)c2nonc12	-1.1	-0.2	-3.5	9.3	14.3	11.0	13.9%	7.0
Cc1c(NC(=O)C(C)OC(=O)c2cccc([N+](=O)[O-])c2)c(=O)n(-c2ccccc2)n1C (stereo not given)	-0.8	-0.1	-0.2	3.2	-22.8	1.1	11.0%	-3.7
O=C(CCC(=O)Nc1ccc(F)cc1)N/N=C/c1ccccc1O	4.8	0.0	1.7	-8.7	-15.8	-0.9	.	-2.0
Cn1nnc2cc(C(=O)N3CCN(c4ccccc4)CC3)ccc21	3.5	0.9	2.1	-8.8	-17.2	.	8.5%	-2.7
CCOc1cc2[nH]c(=S)n(CC3CCCO3)c(=O)c2cc1OCC (stereo not given)	0.1	-0.7	-0.9	17.4	5.1	.	28.9%	6.1
CN1CCN(c2ccccc2NC(=O)c2cc3c(s2)-c2ccccc2OC3)CC1	-3.7	-0.3	4.4	-9.3	35.5	10.2	-13.8%	4.5
CC(C(=O)NC1CCCC1)N1CCN(Cc2ccccc2)CC1 (stereo not given)	-10.1	-0.7	-1.0	-8.7	4.5	-7.6	.	-3.5
Cn1c(Cn2c(=O)sc3ccccc32)nnc1SCC(=O)NC1CCCCC1	-1.4	0.7	0.0	2.9	-6.9	.	8.4%	0.7
c1ccc(CNC2=NCCC2)nc1	0.1	0.4	-2.9	?	-3.6	.	-7.6%	.
CCN(Cc1ccccc1)S(=O)(=O)c1ccc(C(=O)N2CCN(c3nc4ccccc4s3)CC2)cc1	7.5	0.4	5.2	2.2	0.3	.	-1.0%	44.1
COc1ccc(CCNC(=S)N2CCN(S(=O)(=O)c3ccccc3)CC2)cc1	1.5	0.0	.	0.2	-4.7	1.6	-2.1%	-2.5
Cc1cc(C(=O)OCC(=O)N2C(C)CCCC2C)c2ccccc2n1 (stereo not given)	2.8	-0.3	.	.	.	0.9	-5.1%	2.1
CN(C)S(=O)(=O)c1ccc(NC(=O)COc2ncnc3c2cnn3-c2ccccc2)cc1	-4.5	0.0	-0.3	-11.4	-5.6	.	.	-5.7
COc1ccc(S(=O)(=O)N2CCN3CCCC3C2)cc1 (stereo not given)	6.1	-1.4	0.4	-2.8	-1.4	-1.3	.	-4.1
O=[N+]([O-])c1cc(Cl)ccc1N1CCN(c2cccc(C(F)(F)F)c2)CC1	1.5	0.3	0.0	36.2	37.7	.	.	12.7
CCC(=O)c1ccc(OCC(=O)OCC(=O)N2CCN(c3ccc(OC)cc3)CC2)cc1	-0.9	0.6	0.3	-2.3	-2.5	-19.0	-3.1%	.
CN(c1ccccc1)c1nc(N2CCCC2)nc(-n2ccnc2)n1	-2.4	0.9	5.0	-24.6	12.5	.	-2.3%	2.1
COc1ccc(NC(=O)CCOc2ccccc2C)cc1S(=O)(=O)N1CCCCC1	2.3	-0.3	5.9	15.0	14.0	-22.2	5.8%	4.6
The results go on:
SMILES	LANA-H2A inh	Bfl-1 A1 inh	RanGTP-Impb inh	Calb FLC	T cruzi inh	AF4-AF9 inh	Vif TR-FRET	Beta cell apopt
COC(=O)c1c(NC(=O)CSc2nnnn2-c2ccccc2)sc2c1CCC(C(C)(C)C)C2 (stereo not given)	-4.3	0.9	0.8	-1.1	41.2	.	22.3%	-0.4
Cc1ccc(S(=O)(=O)NNC(=O)Cc2cccn2C)cc1	7.3	0.4	-1.4	-3.9	6.7	1.9	?	-0.1
O=C(CCN1C(=O)c2ccc([N+](=O)[O-])cc2C1=O)Nc1nccs1	1.8	1.4	-1.6	-1.4	-12.1	-0.3	-2.3%	-0.1
COc1ccc(/C=N/NC(=O)Cn2cnc3c2c(=O)n(C)c(=O)n3C)c(OC)c1OC	-4.7	1.5	-1.6	-17.0	1.0	-2.3	87.2%	5.6
Cc1ccc(NC(=O)CCCSc2ccccc2)cc1S(=O)(=O)N1CCOCC1	-4.5	0.4	1.7	-3.5	15.4	-0.9	.	-2.1
CC(C)Cc1nnc(NC(=O)Cc2ccccc2[N+](=O)[O-])s1	-1.1	-0.5	-3.8	-5.3	-7.0	3.6	.	-2.8
CCCCn1c(SCC(=O)N2CCc3ccccc32)nnc1-c1ccncc1	0.8	1.1	2.1	13.9	1.4	.	-1.0%	-1.7
Cc1ccc2[nH]c(=O)c(CN(CCO)Cc3nnnn3CCc3ccccc3)cc2c1	-2.8	-0.5	-2.1	6.5	16.5	.	4.6%	-1.0
CN1CCCC(C(=O)C(C#N)c2ccccc2)C1 (stereo not given)	3.5	-1.5	0.8	-6.4	-2.4	.	26.7%	-4.3
NC(=O)c1cc2c(s1)-c1cc(Cl)ccc1SC2	-3.6	1.6	4.1	19.6	15.1	-11.6	13.3%	-9.2
COc1cc(NC(=O)c2ccccc2)ccc1NC(=O)c1cc2ccccc2o1	3.1	-0.2	4.6	-0.1	-6.4	-6.7	0.4%	12.0
Cc1ccc(C2=NS(=O)(=O)N(C)C(C(=O)N3CCCCC3)=C2)cc1	4.0	1.1	2.7	-2.9	-9.1	3.2	.	-5.1
Cc1ccc2cc(CNC(C)C)c(=O)[nH]c2c1	3.2	0.8	-1.9	0.1	3.8	.	?	0.0
Cc1cc(OCC(=O)N(C(C)C)C(C)C)ccc1Cl	3.8	0.1	-0.5	1.8	18.7	0.3	-2.0%	-2.1
Cc1ccc2oc(-c3ccccc3)c(C(=O)O)c(=O)c2c1	-2.6	0.0	1.4	1.7	-1.8	.	-5.9%	5.3
CC(Oc1ccc(Cl)cc1Cl)c1nc(-c2ccc(NC(=O)c3cccnc3)cc2)no1 (stereo not given)	-5.3	-0.3	5.7	1.8	41.2	.	10.6%&-4.2%	100.7*

This is a random part of the collection. Share with any hit: about 4.3%.
